# Lassa entry inh – qHTS for Inhibitors of binding or entry into cells for Lassa Virus; 300,000 compounds, 1.2% hits; Lassa virus pseudotype entry inhibition, cell reporter; control for the full effect not named in the record; Potency, µM (titrated, usually from 37.9 µM), inactives show at the highest dose activity change, negative = inhibition, usual class: inhibitors; AID 540256, 2011; active means well fitted inhibition curve with a large enough effect; inconclusive means small, poorly fitted or top-dose-only effect, or effect the other way; inactive means flat fitted curve, though single readings scatter; tested in HEK293 cells; further: on the % scale 0 is the no-effect control and ±100 the full control effect; nearly all actives have a fitted effect of over 50% in size; luciferase read-out
# Cruzain inh Det – qHTS Assay for Promiscuous and Specific Inhibitors of Cruzain (with detergent) | purified cruzain, Z-FR-AMC fluorescence, 0.01% Triton | Potency, µM, inactives show max response, negative = inhibition, usual class: inhibitors | 200,000 compounds, 0.43% hits; active means well fitted curve in the direction sought with a large enough effect; inconclusive means small, poorly fitted or top-dose-only effect, or another doubt; inactive means no such curve, though single readings can be large; an effect the other way counts as inactive or inconclusive;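 further: plate controls were neutral wells for no effect and buffer without enzyme for full effect; nearly all actives have a fitted effect of over 40% in size; top concentration of the series not given in the record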
# Target sequence (P25779 123-467 limits assumed): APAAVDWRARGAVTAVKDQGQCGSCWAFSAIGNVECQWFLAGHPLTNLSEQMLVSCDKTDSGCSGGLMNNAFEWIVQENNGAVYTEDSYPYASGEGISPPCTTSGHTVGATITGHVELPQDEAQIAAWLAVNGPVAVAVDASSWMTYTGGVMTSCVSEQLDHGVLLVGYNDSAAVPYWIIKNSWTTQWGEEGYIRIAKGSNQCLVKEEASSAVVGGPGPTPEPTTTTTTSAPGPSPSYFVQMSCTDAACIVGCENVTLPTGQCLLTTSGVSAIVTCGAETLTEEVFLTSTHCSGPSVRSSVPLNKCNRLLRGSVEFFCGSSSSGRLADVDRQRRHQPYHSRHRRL
#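 In this qHTS format, compounds are incubated with 1.5 nM cruzain for 15 min at room temperature before 2 uM Z-FR-AMC is added. Release of AMC is followed at 360/450 nm, and progress is taken as the 60 s fluorescence difference.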
# SARS PLP yeast – qHTS of Yeast-based Assay for SARS-CoV PLP. S. cerevisiae expressing SARS-CoV PLpro, growth rescue; control for the full effect not named in the record. 330,000 compounds, 0.19% hits. Potency, µM (titrated, usually from 32.9 µM), inactives show at the top dose activity, positive = growth rescue; further: 0% is about no effect; nearly all actives have a fitted effect of over 55% in size; growth read by luminescence after 48 h
# RE007 growth inh – qHTS Assay for Inhibitors of the HIV-1 protein Vpr; S. pombe RE007 Vpr strain, BacTiter-Glo ATP luminescence, 24 h; control for the full effect not named in the record; Potency, µM (series often up to 92.2 µM), for inactives: at the highest dose activity change, negative = less growth; 360,000 compounds, 0.21% hits; AID 651644, 2012; active = well fitted falling curve with a large enough effect; inconclusive = small, poorly fitted or top-dose-only effect; inactive = no such curve, though single readings can be large or run the other way;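 further: on the % scale 0 is the no-effect control and ±100 the full control effect; nearly all actives have a fitted effect of over 50% in size; the assay follows cell death caused by Vpr and the record does not say whether a fall means rescue or toxicity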
#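 Fission yeast strain RE007, carrying one chromosomally integrated HIV-1 vpr copy, was seeded at OD 0.01 in PMG+AL medium with 23 nL pinned compound. After 24 h at 30 °C and 99% humidity, viability was read by BacTiter-Glo luminescence.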
# StopGo reporter – High Throughput Screening for Foot and Mouth Disease Virus Antivirals | 410,000 compounds, 1.2% hits | human cells with a luciferase reporter of 2A StopGo recoding; control for the full effect not named in the record | Potency, µM (series often up to 57.9 µM), without a hit: at the highest dose signal change, negative = less light; active = well fitted falling curve with a large enough effect; inconclusive = small, poorly fitted or top-dose-only effect; inactive = no such curve, though single readings can be large or run the other way; tested in HEK293T cells; further: on the % scale 0 is the no-effect control and ±100 the full control effect; nearly all actives have a fitted effect of over 45% in size; luciferase light after 4 h
# MARV entry inh – qHTS for inhibitors of binding or entry into cells for Marburg Virus | Marburg virus pseudotyped entry inhibition, cell reporter; control for the full effect not named in the record; about a third of the inactives were read at about 46 µM | Potency, µM (highest dose often 37.8 µM), inactives show top-dose activity change, negative = inhibition, actives largely listed as inhibitors | 300,000 compounds, 1.8% hits | AID 540276, 2011; active = well fitted inhibition curve with a large enough effect; inconclusive = small, poorly fitted or top-dose-only effect, or effect the other way; inactive = flat fitted curve, though single readings scatter; tested in HEK293 cells; about a fifth of its hits are not listed in these tables; further: on the % scale 0 is the no-effect control and ±100 the full control effect; luciferase read-out
# NS1 inh – qHTS Assay for Inhibitors of Influenza NS1 Protein Function | S. cerevisiae slowed by influenza A NS1, growth recovery by OD600 | Potency, µM (titrated, usually from 46.1 µM), inactives show top-dose activity, positive = more growth | 270,000 compounds, 0.4% hits | AID 2326, 2010; further: actives are rising curves; nearly all actives have a fitted effect of over 50% in size
#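 S. cerevisiae expressing influenza A NS1, grown in glucose, washed, then diluted 1:100 into pH 6.0 -URA galactose medium with 23 nl compound. Growth recovery read as OD600; NS1-free strain serves as control.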
# Cruzain inh noDet – qHTS Assay for Promiscuous and Specific Inhibitors of Cruzain (without detergent) | AID 1476, 2009 | Potency, µM, without a hit: max response, negative = inhibition, actives largely listed as inhibitors | purified cruzain, Z-FR-AMC fluorescence, no detergent | 200,000 compounds, 2.3% hits | Cruzipain (Trypanosoma cruzi), P25779; active means well fitted curve in the direction sought with a large enough effect; inconclusive means small, poorly fitted or top-dose-only effect, or another doubt; inactive means no such curve, though single readings can be large; an effect the other way counts as inactive or inconclusive;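 further: plate controls were enzyme without inhibitor for no effect and buffer without enzyme for full effect; nearly all actives have a fitted effect of over 40% in size; top concentration of the series not given in the record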
#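 Purified cruzain at 1.5 nM, pre-incubated 15 min with compound at room temperature in 100 mM sodium acetate pH 5.5, 5 mM DTT, 0.00005% Triton X-100. Reaction started with 2 uM Z-FR-AMC; AMC fluorescence increase over 60 s gives rate.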
# * hit, by the source's call; ? = inconclusive; · = not tested or not shown; & = joins results of further samples; [ ] = dose if it differs, or a comment. Unless noted, the call rests on the fitted dose curve; in most records, active means well fitted rising curve with a large enough effect; inconclusive means small, poorly fitted or top-dose-only effect; inactive means no such curve, though single readings can be large or run the other way. Potency means the concentration at half of the fitted maximal effect. Hits appear at their usual frequency; overall some 4.7% were active at least once.
SMILES,Lassa entry inh,Cruzain inh Det,SARS PLP yeast,RE007 growth inh,StopGo reporter,MARV entry inh,NS1 inh,Cruzain inh noDet
CC(=O)c1ccc(NC(=O)COC(=O)Cn2cnc3ccccc32)cc1,?,·,1%,-3%,3%,23%,·,·
CCOC(=O)c1nn(-c2ccccc2)c2nnc(Cc3ccc(C)cc3)c(=O)n12,-18%,-2.6%,2%,28%,-21%,22%,-12%,-17%
Cc1ccc(OCc2cc(C(=O)NC3CCCCC3)no2)cn1,·,·,-9%,-12%,?,·,-13%,·
Cc1ccc(S(=O)(=O)N2CCCC2C(=O)OCc2nc3ccccc3s2)cc1 (stereo not given),0%,4.8%,-27%,-11%,-9%,16%,-67%,-1%
O=S(=O)(c1ccc(Cl)cc1)N1CCN(C2CCN(Cc3ccccc3)CC2)CC1,11%,3.7%,-4%,-5%,?,6%,-7%,6%
CCc1ccc(N(C(=O)c2snc(C(N)=O)c2N)C(C(=O)NC2CCCC2)c2ccncc2)cc1 (stereo not given),·,·,0%,-9%,1%,-30%[46.1 µM],-3%,·
CCc1ccc(CNC(=O)COc2cc(=O)n(CC)c3ccccc23)cc1,-19%[46.1 µM],-1.3%,·,·,-23%,26%[46.1 µM],·,23%
CNC(=S)NNC(=O)c1cc(-c2cccnc2)nc2ccccc12,-11%[46.1 µM],·,12%,?,18%,19%[46.1 µM],0%,·
Cc1ccc(N2CCN(S(=O)(=O)c3nnc(NC(=O)c4ccc(C(C)C)cc4)s3)CC2)cc1,7%[46.1 µM],-2.6%,·,·,12%,·,·,-1%
CCN1CCc2c(sc(NC(=S)NC(=O)c3ccccc3)c2C#N)C1,?,-0.4%,0%,-8%,43%[activator],0%,8%,-11%
C#CCOCCOCCOCCNc1nc(N2CCN(C(=O)[C@H](CCCCN)n3cc([C@@H](N)C(C)CC)nn3)CC2)nc(N2CCN(C(=O)[C@H](Cc3ccc(O)cc3)n3cc([C@@H](N)CC(C)C)nn3)CC2)n1 (stereo not given in full),·,·,0%,-3%,-19%,·,-1%,·
O=C(NCCS(=O)(=O)N1CCN(c2cccc(Cl)c2)CC1)C1CCCC1,-3%,·,-8%,-2%,-10%,-3%,·,·
CC1CCCC(C)N1/N=C/c1cccc([N+](=O)[O-])c1 (stereo not given),·,·,-1%,-16%,23%,19%,17%,·
CCOC(=O)C1=C(CNCCc2ccc(Cl)cc2)NC(=O)NC1c1cccc([N+](=O)[O-])c1 (stereo not given),-11%[46.1 µM],·,-1%,-10%,-20%,?,9%,·
CCOc1ccc(-n2c(=S)sc3c(=O)n(-c4ccc(F)cc4)c(SCC(=O)O)nc32)cc1,·,·,-1%,-26%,-10%,·,8%,·
COc1ccc(CNC(=O)CN(C(=O)c2csnn2)c2ccccc2F)cc1,15%[46.1 µM],·,8%,23%,18%,2%[46.1 µM],4%,·
COc1ccc(OCC(=O)OC(C)CN2CCOCC2)cc1 (stereo not given),6%,-2.4%,14%,-4%,1%,20%,-2%,18%
CC(=O)N(c1ccc2oc(=O)sc2c1)S(=O)(=O)c1ccc(C(=O)O)cc1,3%[46.1 µM],·,8%,20%,4%,18%[46.1 µM],21%,·
Cc1ccc(NC(=S)N2CCC(N(C)CC3CCCO3)CC2)cc1C (stereo not given),-6%,·,0%,-30%,0%,-10%[46.1 µM],·,·
CCCCN1C(=O)C(NC(=O)c2cccnc2)(C(F)(F)F)C2=C1CC(C)(C)CC2=O (stereo not given),15%,0.2%,0%,7%,12%,-2%,9%,1%
Cc1cc(NC(=O)c2cc(-c3ccncc3)nc3c(C)cccc23)no1,-25%,-6.6%,-22%,5%,-11%,-14%,-17%,4%
CCOc1ccc(NC(=O)COc2ccc(S(=O)(=O)N3CCOCC3)cc2)cc1,·,·,-1%,-3%,-35%,-19%,·,·
CN(C)c1ncc(S(=O)(=O)c2ccc(Cl)cc2)c(-c2ccccc2)n1,-16%,-3.4%,-18%,25%,-21%,-4%,3%,-1%
COc1ccc(Cl)c2sc(N3CCN(C(=O)c4ccco4)CC3)nc12,1%[46.1 µM],·,-1%,-2%,-17%,-27%,·,·
COc1cccc(NC(=S)N2CCC(Cc3ccccc3)CC2)c1,·,·,-4%,-5%,?,·,-52%,·
Cc1ccc(-c2ccc(=O)n(CC(=O)NCc3ccc(F)cc3)n2)cc1,?,0.0%,-6%,3%,-7%&-13%,5%&5%[46.1 µM],·,-10%
OCC(O)C1OC(Oc2ccccc2)C(O)C(O)C1O (stereo not given),8%[46.1 µM],·,·,-2%,-1%,0%[46.1 µM],·,·
O=C(COC(=O)CCCSc1nc2ccccc2[nH]1)Nc1ccc(Oc2ccccc2)cc1,-6%,-5.7%,7%,-4%,-19%,-9%,8%,-29%
COc1cc(/C=C(/C#N)c2ccccc2F)ccc1OCc1ccccc1,-20%,-2.0%,18%,-5%,-4%,29%,-5%,?
COC(=O)c1ccccc1NC(=O)CSc1cc(-c2ccccc2)nc(C)n1,-7%[46.1 µM],-0.7%,·,·,-13%,20%[46.1 µM],·,-3%
Cc1ccc(Cl)cc1N1CCN(C(=O)c2cn(C)c(=O)c3c2c2ccccc2n3C)CC1,-49%[14.3 µM],-3.4%,7%,-12%,6%,?,-50%,?
Cc1cc(C)c(C#N)c(N2CCN(c3ccc(F)cc3)CC2)n1,-20%[46.1 µM],·,-8%,-8%,-23%,-30%[46.1 µM],-22%,·
Cc1ccc(NC(=O)CN(C)C(=O)c2ccccc2Sc2ccccc2C#N)cc1,?,·,-3%,4%,3%,?,·,·
CCCCNc1ccc(C(CC(N)=O)NC(=O)Cc2ccc(Br)cc2)cc1[N+](=O)[O-] (stereo not given),·,·,-1%,-2%,-23%,·,-4%,·
COc1ccc([C@H]2C=C(C(=O)O)O[C@@H](OCCCCO)C2)cc1,·,·,-1%,-7%,-2%,·,-33%,·
O=C(CSc1nc2ccncc2[nH]1)Nc1ccccc1C(F)(F)F,?,5.1%&-4.5%,-3%,-7%,-25%&-14%,-10%,6%,-6%&-10%
CS(=O)(=O)CCN1CC2CCCC(C2)C1,22%,·,·,5%,-17%,14%,·,·
Cc1cccc(C(=O)Nc2onc(C)c2C#N)c1,-1%,4.9%,-5%,11%,12%,?,-27%,-3%
Cn1c(=O)n(C)c2cc(NC(=O)C(F)(F)F)ccc21,21%,0.1%,5%,-1%,-6%,15%,2%,4%
Cc1ccc(S(=O)(=O)N(CC(=O)N/N=C/c2cccc(Cl)c2)c2cccc3cccnc23)cc1,-4%,7.6%,·,1%,-16%,-14%,5%,?
CC1CCN(S(=O)(=O)c2cc(C(=O)N3CCN(c4ccccc4F)CC3)n(C)c2)CC1,-3%[46.1 µM],-5.6%,·,·,0%,·,·,?
COc1ccc(Cn2c(CCC(=O)NCCC(C)C)nc3ncccc3c2=O)cc1,15%,·,4%,?,-2%,-4%[46.1 µM],-3%,·
CN(C)c1ccc(-c2nn3c(-c4ccc(Cl)cc4)nnc3s2)cc1,-4%,-1.2%,-2%,2%,-6%,20%&20%,-3%,4%
O=C(C1CC(=O)N(C2CCCCC2)C1)N1CCN(c2ccccc2)CC1 (stereo not given),-3%,·,4%,0%,-13%,-16%,17%,·
CN(C(=O)CSc1nc2c(c(=O)[nH]1)CCC2)c1ccccc1,-1%,·,7%,-17%,3%,-20%,·,·
COc1ccc(NC(=O)Cc2nc3ccccc3[nH]2)cc1,10%,-5.8%,8%,-16%,29%,1%,?,-20%
Cn1c(N=Cc2ccc([N+](=O)[O-])cc2)c(N)c(=O)n(C)c1=O,-13%,·,·,7%,5%,13%,·,·
CC(C)[C@H](NC(=O)NCCc1ccccc1)C(=O)O,-13%,0.9%,-5%,2%,-10%,?,6%,9%
Cc1ccc(NC(=O)NNC(=O)c2cc3ccccc3cc2O)cc1,·,·,0%,-8%,-3%,·,4%,·
CCOc1ccc(S(=O)(=O)N2CCC(n3c(C)nc4cccnc43)CC2)cc1,8%[46.1 µM],-3.0%,·,·,?,·,·,18%
CCc1nc2ccccc2c(C(=O)O)c1C,6%,2.5%,-4%,0%,10%,0%,9%,-16%
C=CCOc1ccccc1CNCCCN1CCOCC1,-14%,-0.2%,-3%,1%,10%,0%,-4%,-3%
Cc1ccc(-c2nc(CS(=O)CC(=O)NCc3ccccn3)c(C)o2)cc1 (stereo not given),·,-0.5%,11%,-11%,-19%,·,?,-6%
CCCOC(=O)c1ccc(Nc2cc(C)nc3ncnn23)cc1,-8%,0.3%,-1%,6%,-18%,-5%[46.1 µM],-16%,19%
COc1ccc(CC(=O)NNC(=O)c2cccs2)cc1,?,0.8%,-19%,15%,4%,8%,2%,-4%
S=c1[nH]nc(-c2cccc3ccccc23)n1-c1cccnc1,7%,·,1%,-14%,3%,6%[46.1 µM],11%,·
COC(=O)c1ccc(CSc2nc3cc(Cl)ccc3s2)o1,0%,-4.5%,-6%,1%,-16%,?,-6%,-3%
COc1cc2nc(NCc3ccccc3Cl)n3nc(-c4cccnc4)nc3c2cc1OC,·,2.3%,·,·,-10%,-4%[46.1 µM],·,?
COc1cc(S(=O)(=O)NCCCN2CCOCC2)ccc1Cl,2%,-2.9%,0%,7%,·,7%,6%,4%
CCOc1ccc(CCNC(=O)c2ccc3[nH]c(C)c(C)c3c2)cc1,?,-21%,·,·,-22%,·,·,-17%

# (next part)
SMILES,Lassa entry inh,Cruzain inh Det,SARS PLP yeast,RE007 growth inh,StopGo reporter,MARV entry inh,NS1 inh,Cruzain inh noDet
Cc1c(C(=O)NCc2ccccn2)oc2ccccc12,19%,2.1%,-1%,-4%,46%[activator],17%,-3%,1%
CC1CCC(NC(=O)CN(C)S(=O)(=O)c2ccc3c(c2)c(=O)n(C)c(=O)n3C)CC1 (stereo not given),·,·,0%,-1%,4%,·,6%,·
Cc1ccc(-n2c(C)nnc2SCC(=O)NC2CC2)cc1,6%[46.1 µM],·,1%,1%,-9%,-27%[46.1 µM],26%,·
Cc1cc(NC(=O)c2cccc(S(=O)(=O)N3CCCCCC3)c2)n(-c2ccccn2)n1,1%,-2.7%,-2%,3%,0%,1%,-37%,?

# Source: PubChem BioAssay (National Center for Advancing Translational Sciences (NCATS))
